FGF22 binding: FGF22 (human) thermal shift binding; Q9HCT0; recombinant FGF22 thermal shift, SYPRO orange fluorescence; percent of sucrose octasulfate shift, DMSO zero; calls only at 9.99 µM; hit rate 1.5% among 340,000; AID 651658;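 active = melting point raised past a set limit in the mean and every replicate; inconclusive = no clear call; three in four hits are not shown here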
Target sequence (Q9HCT0 whole entry, looked up): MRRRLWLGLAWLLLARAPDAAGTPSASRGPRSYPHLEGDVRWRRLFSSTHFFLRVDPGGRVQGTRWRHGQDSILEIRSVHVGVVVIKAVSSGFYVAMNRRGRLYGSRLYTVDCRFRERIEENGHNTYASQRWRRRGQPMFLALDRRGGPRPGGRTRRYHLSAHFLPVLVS
AF4-AF9 inh: blocks AF4 peptide binding to human AF9; AlphaScreen, biotin-AF4 peptide binding to FLAG-AF9; AID 651704; inhibition, % at 10 µM; hit rate 0.47% among 350,000; P42568;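 active = every replicate reaching a set inhibition limit, whatever the replicate mean, cut at about 25% in these data; inconclusive = mean inhibition reaches that limit but some replicates miss it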;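 note: 0% = plate neutral control median and 100% = total signal loss; the record names both 10 and 1 µM as test concentration; the first replicate is given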
Target sequence (P42568 whole entry, looked up): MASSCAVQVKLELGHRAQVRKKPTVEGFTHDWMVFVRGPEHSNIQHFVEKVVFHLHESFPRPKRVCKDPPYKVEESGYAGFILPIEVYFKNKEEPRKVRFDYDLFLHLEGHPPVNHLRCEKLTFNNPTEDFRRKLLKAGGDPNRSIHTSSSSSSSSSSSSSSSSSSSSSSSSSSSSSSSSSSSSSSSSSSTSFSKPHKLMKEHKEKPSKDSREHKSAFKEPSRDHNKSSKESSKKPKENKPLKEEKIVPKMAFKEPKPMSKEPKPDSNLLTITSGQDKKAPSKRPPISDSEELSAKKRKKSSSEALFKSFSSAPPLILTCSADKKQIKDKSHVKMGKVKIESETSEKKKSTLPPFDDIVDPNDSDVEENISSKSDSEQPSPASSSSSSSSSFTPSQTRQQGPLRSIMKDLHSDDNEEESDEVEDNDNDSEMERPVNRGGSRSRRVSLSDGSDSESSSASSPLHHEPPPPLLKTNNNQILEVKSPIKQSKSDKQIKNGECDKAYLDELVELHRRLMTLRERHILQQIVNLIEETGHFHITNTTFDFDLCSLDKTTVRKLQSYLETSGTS
Ecoli growth: E. coli growth inhibition | Escherichia coli growth, OD600, 23 h; hits give low values | hit rate 0.21% among 330,000 | AID 1053175 | OD600 absorbance (test concentration not listed);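 active = OD600 absorbance below the run mean of sample wells minus 3.6 SD, in any replicate, cut at about 0.56 in these data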;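 note: stock transfer was 300 nL into about 60 µL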
rRNA inh HTS: inhibits bacterial ribosomal RNA function over humanized ribosomes; E. coli WT GFP vs humanized-ribosome RFP mutants, fluorescence, 24 h; hits give low values; DMSO median 0, no signal -100; GFP signal change (wild-type ribosome), % (no concentration beside the values); hit rate 1.6% among 350,000;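 active = significant combined selectivity score with lowered wild-type GFP, culture density cut under 30%, mutant RFP and density less affected; inactive = any of these conditions unmet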; note: one replicate is shown; some compounds called inactive have numbers as strong as hits
ALR H2O2 inh: inhibitors of human sulfhydryl oxidase ALR. purified ALR, DTT oxidation, H2O2 HRP-luminol luminescence. inhibition, % (concentration not given with the values). hit rate 3.8% among 290,000. AID 485317;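 active = mean and each replicate at 75% or more; inconclusive = only one of the two met; inactive = neither met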;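 note: stock transfer was 7.5 nL into about 7.5 µL; 0% = neutral wells and 100% = wells with inactivated enzyme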
Target sequence (P55789 whole entry, looked up): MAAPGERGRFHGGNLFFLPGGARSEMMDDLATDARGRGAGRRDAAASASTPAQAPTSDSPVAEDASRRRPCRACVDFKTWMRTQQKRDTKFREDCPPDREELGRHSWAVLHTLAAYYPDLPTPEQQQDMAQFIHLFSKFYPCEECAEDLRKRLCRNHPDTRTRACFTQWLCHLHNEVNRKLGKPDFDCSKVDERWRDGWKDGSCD
Vif A3G: HIV-1 Vif–A3G interaction blockers – biochemical, TR-FRET, GST-Vif 1-94, biotin-A3G peptide, dose response retest, primary screen (AID 1117319) | TR-FRET GST-Vif / biotin-A3G peptide binding; higher % means a stronger effect; test concentration not given here; strong numbers were not always called active | one-dose inhibition, %; IC50 in µM for titrated hits | hit rate 0.57% among 260,000;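 active = above the screen mean plus three standard deviations and confirmed in dose response; inconclusive = results disagree or hit not tested in dose response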;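 note: Vif residues 1-94 fused to GST binding biotinylated APOBEC3G peptide 110-148; 0% = full assay without inhibitor and 100% = GST in place of GST-Vif; retest series ran down from 100 µM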
HNF4A DNA FP: change in binding of human HNF4 alpha to DNA; P41235; AID 1224865; HNF4a-FITC DNA binding, fluorescence polarization, 1 h; activity change, % at 10 µM; hit rate 0.3% among 360,000; in the data active = activity change above about 30%, passing the limit was not always enough;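 note: controls were the assay level and a saturating level of protein; the project sought stronger binding though the title names inhibitors; some compounds called inactive have numbers as strong as hits; positive values seem to mean higher polarization but the record does not say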
rRNA inh HTS OD600: second read-out of rRNA inh HTS, no call of its own (marks repeat the call); OD600 change, %; measured here: OD600 growth;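 optical density of the mix in the first replicate; 0 = DMSO median and -100 = no signal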
rRNA inh HTS RFP: recorded beside rRNA inh HTS, whose call it bears; RFP signal change, %; measured here: RFP humanized mutant strains;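 first replicate; 0 = DMSO median and -100 = no signal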
* marks the source's active call; other numbers are inactive results.

COc1ccc(C(=O)OCC(=O)NC(=O)NCc2ccccc2)cc1[N+](=O)[O-] was read as FGF22 binding inactive, AF4-AF9 inh 2.4, Ecoli growth 0.66, rRNA inh HTS -2, Vif A3G 3%, HNF4A DNA FP 0.0, rRNA inh HTS OD600 13 and rRNA inh HTS RFP -0.3.
Screening CC1C(=O)N(Cc2cn(Cc3ccco3)nn2)CCS(=O)(=O)N1Cc1ccc(-c2ccc(F)cc2)cc1 (centres undefined) returned FGF22 binding inactive, AF4-AF9 inh 4.3, rRNA inh HTS 1, Vif A3G -3%, HNF4A DNA FP -3.1, rRNA inh HTS OD600 -3 and rRNA inh HTS RFP 3.1.
COc1cccc(CNC(=O)C[C@H]2CC[C@@H](NC(=O)C3CCC3)[C@H](CO)O2)c1 was read as FGF22 binding inactive, AF4-AF9 inh -1.6, rRNA inh HTS 1, rRNA inh HTS OD600 19 and rRNA inh HTS RFP -1.7.
COc1ccc(OC)c(-c2nc(C(=O)NCCCN3CCOCC3)cc3c2[nH]c2ccccc23)c1 was read as FGF22 binding inactive, AF4-AF9 inh 13, Ecoli growth 0.72, ALR H2O2 inh -2 and HNF4A DNA FP -0.5.
For CCOc1ccccc1C(=O)OCC(=O)Nc1cccc(S(=O)(=O)N2CCCC2)c1 the results were FGF22 binding inactive, AF4-AF9 inh -3.6, Ecoli growth 0.69, rRNA inh HTS -12, HNF4A DNA FP -1.3, rRNA inh HTS OD600 -10 and rRNA inh HTS RFP 1.5.
Screening C[C@H]1CN([C@@H](C)CO)S(=O)(=O)c2ccc(-c3ccccc3)cc2O[C@@H]1CN(C)Cc1ccccc1C(=O)O returned FGF22 binding inactive, AF4-AF9 inh 0.1, rRNA inh HTS -6, rRNA inh HTS OD600 -6 and rRNA inh HTS RFP -1.8.
`COCCNC(=O)C(c1cccs1)N(C(=O)Cn1nnc2ccccc21)c1ccc2c(c1)OCO2` (centres undefined) gave Ecoli growth 0.7, ALR H2O2 inh -3, Vif A3G inconclusive and HNF4A DNA FP 3.2.
Screening COC(=O)c1ccc(COc2cccc(OC)c2)o1 returned Ecoli growth 0.68, ALR H2O2 inh -8, Vif A3G 3% and HNF4A DNA FP 1.5.
`COc1ccc(NC(=O)N[C@H]2CC[C@H](CCn3cc(-c4ccccn4)nn3)O[C@H]2CO)cc1` gave FGF22 binding inactive, AF4-AF9 inh -1.0, rRNA inh HTS 3, rRNA inh HTS OD600 12 and rRNA inh HTS RFP -1.8.
For CCOc1ccc(OCCOCCN2CCc3ccccc3C2)cc1 the results were Ecoli growth 0.72, ALR H2O2 inh -10, Vif A3G inconclusive and HNF4A DNA FP -0.4.
For Cc1c(Br)c([N+](=O)[O-])nn1CC(=O)NCc1ccco1 the results were FGF22 binding inactive, AF4-AF9 inh -3.5, Ecoli growth 0.66, rRNA inh HTS -7, ALR H2O2 inh -4, Vif A3G inconclusive, HNF4A DNA FP 1.2, rRNA inh HTS OD600 5 and rRNA inh HTS RFP 5.3.
Screening COc1ccc(F)cc1-c1cc(C(=O)Nc2ccc(C)c(NS(C)(=O)=O)c2)[nH]n1 returned FGF22 binding inactive, AF4-AF9 inh -3.4, rRNA inh HTS -11, HNF4A DNA FP 0.0, rRNA inh HTS OD600 -9 and rRNA inh HTS RFP 2.6.
Screening CN1[C@H](C(=O)NCC2CCCCC2)[C@@H](CO)[C@@H]2Cn3c(cccc3=O)[C@@H]21 returned FGF22 binding inactive, AF4-AF9 inh 1.4, rRNA inh HTS 1, rRNA inh HTS OD600 1 and rRNA inh HTS RFP -2.2.
For CCCCN(CCCNC(=O)C1CCN(S(=O)(=O)CC)CC1)c1ccccc1 the results were Ecoli growth 0.72, ALR H2O2 inh 99*, Vif A3G inconclusive and HNF4A DNA FP 3.2.
For CC(C)c1ccc(CN2CCC2(C)C(=O)Nc2cccc(Oc3ccccc3)c2)cc1 (centres undefined) the results were FGF22 binding inactive, AF4-AF9 inh -1.4, rRNA inh HTS 7, HNF4A DNA FP -5.6, rRNA inh HTS OD600 10 and rRNA inh HTS RFP 0.7.
CC(=O)C1C(c2ccc(C)cc2)c2c(n[nH]c2C)CC1(C)O (centres undefined) was read as Ecoli growth 0.66, ALR H2O2 inh 5, Vif A3G 5% and HNF4A DNA FP -0.9.
Screening O=C(Nc1cccc(O)c1)c1cc(S(=O)(=O)N2CCCC2)ccc1Cl returned Ecoli growth 0.72, ALR H2O2 inh 54, Vif A3G -4% and HNF4A DNA FP -0.9.
CO[C@@H]1CN(C)C(=O)c2cc(NC(C)=O)ccc2OC[C@@H](C)N(C(=O)c2ccccn2)C[C@H]1C was read as FGF22 binding inactive, AF4-AF9 inh -13, rRNA inh HTS 2, rRNA inh HTS OD600 4 and rRNA inh HTS RFP -0.4.
For CCSc1ncc(Cl)c(C(=O)Nc2ccccc2F)n1 the results were FGF22 binding inactive, AF4-AF9 inh -2.4, Ecoli growth 0.64, rRNA inh HTS 10, ALR H2O2 inh -3, HNF4A DNA FP -0.1, rRNA inh HTS OD600 6 and rRNA inh HTS RFP -0.1.
`CCNc1nc(-c2cc(C)n(Cc3ccco3)c2C)cs1` gave FGF22 binding inactive, AF4-AF9 inh 4.2, Ecoli growth 0.68, rRNA inh HTS 26, ALR H2O2 inh -15, Vif A3G 9%, HNF4A DNA FP -8.3, rRNA inh HTS OD600 18 and rRNA inh HTS RFP 12.
Cc1ccc(O)c(C(=O)c2cnc3c(c2)c(-c2ccc(F)cc2)c(C#N)c(=O)n3C)c1 was read as FGF22 binding inactive, AF4-AF9 inh -39, Ecoli growth 0.74, rRNA inh HTS 6, ALR H2O2 inh -23, Vif A3G 9%, HNF4A DNA FP 7.5, rRNA inh HTS OD600 9 and rRNA inh HTS RFP -0.5.
`CC1=NN(C(=O)c2ccccc2-n2cccc2)C(O)(C(F)(F)F)C1` (centres undefined) gave FGF22 binding inactive, AF4-AF9 inh 8.0, Ecoli growth 0.69, rRNA inh HTS 18, ALR H2O2 inh 12, HNF4A DNA FP 2.3, rRNA inh HTS OD600 6 and rRNA inh HTS RFP -0.4.
For CC1CN(C2=NC(=O)/C(=C/c3ccncc3)S2)CC(C)O1 (centres undefined) the results were FGF22 binding inactive, AF4-AF9 inh -7.4, Ecoli growth 0.72, rRNA inh HTS -2, Vif A3G -4%, HNF4A DNA FP 4.8, rRNA inh HTS OD600 -7 and rRNA inh HTS RFP 1.8.
`Cc1ccc(NC(=O)c2ccc(NCC3CCCO3)c([N+](=O)[O-])c2)cc1Cl` (centres undefined) gave Ecoli growth 0.78, ALR H2O2 inh 0, Vif A3G -4% and HNF4A DNA FP 37*.
For Cc1sc2nc(COC(=O)CNC(=O)c3ccc(C(C)(C)C)cc3)[nH]c(=O)c2c1C the results were Ecoli growth 0.68, ALR H2O2 inh 7, Vif A3G -3% and HNF4A DNA FP 1.6.
For CCNC(=O)C[C@H]1CC[C@H]2[C@H](COc3ccc(NC(=O)Cc4cccs4)cc3C(=O)N2C)O1 the results were FGF22 binding inactive, AF4-AF9 inh -2.1, rRNA inh HTS 1, rRNA inh HTS OD600 1 and rRNA inh HTS RFP -3.0.
Screening CCn1cc(CCC(=O)NCCc2ccccc2)c2ccccc21 returned FGF22 binding inactive, AF4-AF9 inh 1.9, Ecoli growth 0.7, rRNA inh HTS -19*, ALR H2O2 inh -1, Vif A3G -5%, HNF4A DNA FP -0.5, rRNA inh HTS OD600 -11* and rRNA inh HTS RFP 3.0*.
`CS(=O)(=O)Cc1ccc(C(=O)NC2CCCc3ccccc32)cc1` (centres undefined) gave FGF22 binding inactive, AF4-AF9 inh -1.2, Ecoli growth 0.66, rRNA inh HTS 3, HNF4A DNA FP 0.9, rRNA inh HTS OD600 9 and rRNA inh HTS RFP -2.3.
For N#Cc1cc2c(nc1SCc1ccccc1)CCC2 the results were Ecoli growth 0.73, Vif A3G -14% and HNF4A DNA FP -1.8.
Screening CN(C(=O)C1CCC(CNS(=O)(=O)c2cccc3cccnc23)CC1)C1CCCCC1 (centres undefined) returned FGF22 binding inactive, AF4-AF9 inh -0.3, Ecoli growth 0.63, rRNA inh HTS -14, ALR H2O2 inh -10, HNF4A DNA FP -1.2, rRNA inh HTS OD600 -24 and rRNA inh HTS RFP 3.2.

Entries above that contain a furan ring, fused or not (4):
Screening CC1C(=O)N(Cc2cn(Cc3ccco3)nn2)CCS(=O)(=O)N1Cc1ccc(-c2ccc(F)cc2)cc1 (centres undefined) returned FGF22 binding inactive, AF4-AF9 inh 4.3, rRNA inh HTS 1, Vif A3G -3%, HNF4A DNA FP -3.1, rRNA inh HTS OD600 -3 and rRNA inh HTS RFP 3.1.
Screening COC(=O)c1ccc(COc2cccc(OC)c2)o1 returned Ecoli growth 0.68, ALR H2O2 inh -8, Vif A3G 3% and HNF4A DNA FP 1.5.
For Cc1c(Br)c([N+](=O)[O-])nn1CC(=O)NCc1ccco1 the results were FGF22 binding inactive, AF4-AF9 inh -3.5, Ecoli growth 0.66, rRNA inh HTS -7, ALR H2O2 inh -4, Vif A3G inconclusive, HNF4A DNA FP 1.2, rRNA inh HTS OD600 5 and rRNA inh HTS RFP 5.3.
`CCNc1nc(-c2cc(C)n(Cc3ccco3)c2C)cs1` gave FGF22 binding inactive, AF4-AF9 inh 4.2, Ecoli growth 0.68, rRNA inh HTS 26, ALR H2O2 inh -15, Vif A3G 9%, HNF4A DNA FP -8.3, rRNA inh HTS OD600 18 and rRNA inh HTS RFP 12.

New compounds follow.
Screening O=C(c1c(F)cccc1F)N(Cc1ccccc1)Cc1ccccc1 returned FGF22 binding inactive, AF4-AF9 inh -0.7, Ecoli growth 0.71, rRNA inh HTS -55, Vif A3G 4%, HNF4A DNA FP -0.8, rRNA inh HTS OD600 -65 and rRNA inh HTS RFP -7.7.
NNC(=O)c1csc(-c2ncc(C(F)(F)F)cc2Cl)n1 was read as FGF22 binding inactive, AF4-AF9 inh 1.5, Ecoli growth 0.68, rRNA inh HTS 11, ALR H2O2 inh 18, HNF4A DNA FP -1.9, rRNA inh HTS OD600 4 and rRNA inh HTS RFP 1.3.
`CCc1ccccc1N(CC)C(=O)c1cn(C)c(=O)c2cc(OC)c(OC)cc12` gave Ecoli growth 0.7, ALR H2O2 inh -2, Vif A3G -1% and HNF4A DNA FP -1.2.
Screening CCCCC(=O)N(C)c1c(CC)nc2c(OCc3cccc(Cl)c3)cccn12 returned FGF22 binding inactive, AF4-AF9 inh 3.4, rRNA inh HTS -62, HNF4A DNA FP -3.5, rRNA inh HTS OD600 -79 and rRNA inh HTS RFP -26.
`CN(C)Cc1nc2ccccc2c(=O)n1Cc1nc(-c2cc3ccccc3o2)cs1` gave Ecoli growth 0.73, ALR H2O2 inh -12, Vif A3G -11% and HNF4A DNA FP 4.2.
Screening O=C1COc2ccc3ccccc3c2CN1 returned Ecoli growth 0.67, ALR H2O2 inh 29, Vif A3G -3% and HNF4A DNA FP 3.4.
COCCN(C(=O)COC(=O)C(C)(C)Oc1ccc(Cl)cc1)c1c(N)n(Cc2ccccc2)c(=O)[nH]c1=O was read as FGF22 binding inactive, AF4-AF9 inh 0.4, Ecoli growth 0.69, rRNA inh HTS 9, HNF4A DNA FP -4.3, rRNA inh HTS OD600 10 and rRNA inh HTS RFP -2.3.
For O=C(CCN1CCN(c2ccccc2)CC1)NNC(=O)c1cccc2ccccc12 the results were Ecoli growth 0.65, ALR H2O2 inh 99*, Vif A3G 5% and HNF4A DNA FP -1.7.

High-throughput results deposited in PubChem BioAssay by several laboratories.

Not all compounds are listed (hit frequency here may not be typical).
